BJeLR lethal: BJeLR cell viability loss | BJeLR (HRASV12) viability, CellTiter-Glo ATP luminescence, 48 h; reference of the scale not given here | hit rate 0.17% among 300,000 | inhibition, % (no concentration beside the values);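 active = replicate mean above 50%; inconclusive = above 50% but judged a plate artefact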;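 also: 50 nL library stock added to about 25 µL; numbers are from one replicate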
Mtb hypoxia rep: reduces hypoxia-regulated biosensor signal in M. tuberculosis. fluorescence inhibition, % (test concentration not listed). hit rate 0.1% among 300,000. M. tuberculosis hypoxia-regulated fluorescent reporter, fluorescence. AID 1159583;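 active = 35 to 45% if threefold the growth effect, above 45% if 1.5-fold the growth effect; inactive = the rest, general growth blockers included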;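 also: wells of about 50 µL received 100 nL stock; 0% = vehicle wells and 100% = reference inhibitor wells; whole bacteria with a GFP reporter of the hypoxia response; strong numbers were not always called active; many hits fall short of the cut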
Sa RN4220 lethal: S. aureus RN4220 growth inhibition; OD600, 16 h; hit rate 0.33% among 330,000; inhibition, % (no concentration beside the values);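 active = z-score of -3 or lower and OD600 up to 0.18 on both plates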;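 also: plate controls were untreated cells for no effect and reference antibiotic for full effect; stock transfer was 100 nL into about 80 µL; one replicate is shown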
Autofluor counter: counter-screen for toxin protease inhibitors: compound fluorescence | compound autofluorescence counterscreen, microsphere flow cytometry; stronger effect = higher value | AID 624483 | hit rate 3.1% among 360,000 | fluorescence intensity (test concentration not listed);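 active = at least 3 SD above the mean of all compounds, about 16000 in these data; inconclusive = too few beads counted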;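 also: 100 nL of 1 mM stock went into each well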
ugtP null kill: compounds lethal to S. aureus RN4220 ugtP deletion mutant; OD600 growth, 16 h; some inactives read as strong as hits; growth inhibition, % (test concentration not listed); hit rate 0.54% among 330,000; AID 1259309;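 active = z-score under -3 and OD600 up to 0.15 on both plates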;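 also: plate controls were untreated wells for no effect and antibiotic for full effect; wells of about 80 µL received 100 nL stock; the first replicate is given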
PrP UTR inh: inhibition of PrP 5' UTR reporter expression; hit rate 0.35% among 340,000; AID 488862; cell-based PrP 5' UTR mRNA reporter, plate reader; inhibition, % (concentration not given with the values);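 active = every replicate at 50% or more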;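 also: 0 = median of the neutral control wells; tested in H4 reporter cells; numbers are from one replicate; inactives centre near -14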
Mtb hypoxia rep growth: recorded beside Mtb hypoxia rep, whose call it bears; growth inhibition, %; measured here: M. tuberculosis growth (absorbance);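 0% = vehicle and 100% = reference antibiotic; read after six days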
The depositor's hits bear a star; u = inconclusive; x = not tested or not shown; & = joins results of further samples.

SMILES	BJeLR lethal	Mtb hypoxia rep	Mtb hypoxia rep growth	Sa RN4220 lethal	Autofluor counter	ugtP null kill	PrP UTR inh
Cc1ccc(S(=O)(=O)N2CCCCC2)cc1C(=O)NCC1CCCO1 (stereo not drawn)	4	-5	0	5.9	4483	11	-1
O=S(=O)(Nc1cccc2ccccc12)c1ccccc1	2	7	10	6.6	4537	-3	3
CN1c2ccsc2C(O)=C(C(=S)Nc2ccc(F)c(Cl)c2)S1(=O)=O	3	x	x	54	4845	31	-5
O=C(O)c1cccc(-n2cccc2/C=C2\NC(=O)N(Cc3ccc(F)cc3)C2=O)c1	2	-14	-11	-1.2	2120	2	-18
COCCCn1c(=N)c(C(=O)NCc2ccc3c(c2)OCO3)cc2c(=O)n3cccc(C)c3nc21	x	-4	15	-3.0	5084	-4	-30
Cc1c(NS(=O)(=O)c2cc(C(=O)OCC(=O)N3CCC(C)CC3)ccc2Cl)c(=O)n(-c2ccccc2)n1C	3	-10	3	-0.4	4316	-1	-23
COc1ccc(CNC(=O)C(=O)NC2CCC(C)CC2)cc1 (stereo not drawn)	-6	9	16	-2.0	4357	8	-29
CC(=O)C1=C(O)C(=O)N(Cc2ccccc2)C1c1cccc([N+](=O)[O-])c1 (stereo not drawn)	0	-6	-10	-3.2	3669	-4	13
CCCCOc1ccccc1NC(=O)CSc1nnnn1C(C)(C)C	-5	12	5	2.6	17476*	-2	-2
N/C(=N\OC(=O)CCCC(=O)O)c1ncc(C(F)(F)F)cc1Cl	-7	x	x	x	2290	x	-15
CCCC(=O)Nc1ccc(N2CCN(C(=O)c3cccs3)CC2)cc1	-9	0	1	-1.6	10386	-1	-5
O=C1NC(=O)N(CCNc2ncc(C(F)(F)F)cc2Cl)C(=O)C1/C=N/OCc1c(F)cccc1Cl (stereo not drawn)	4	x	x	x	2699	x	-29
Nc1cccc(C(=O)NN=Cc2ccsc2)c1	x	-11	-2	-0.9	x	-1	x
COc1ccc(S(=O)(=O)Nc2nc3c(s2)CCCC3)cc1	5	12	1	7.1	3276	-1	-7
CCC1CN(C)C2Cc3c([nH]c4ccccc34)C(=O)CC1C2C(=O)OC (stereo not drawn)	0	x	x	-0.7	5572	-6	-14
COC(=O)CCCNC(=O)c1ccc2oc(CCCc3ccccc3)nc2c1	-7	14	6	0.8	3154	12	-29
COc1ccc(C2C(C#N)=C(N)Oc3c2oc(CO)cc3=O)c(OC)c1OC (stereo not drawn)	-1	-1	-5	3.8	u	12	-12
NCCc1nnc(SCC(=O)Nc2ccc(Br)cc2)o1	-2	8	11	1.7	5786	4	-11
O=C(COC(=O)CCc1nc2ccccc2c(=O)[nH]1)NCc1ccc(F)cc1	-8	3	8	4.6	5569	13	-4
COc1ccc(CC(=O)N2CCN=C2SCc2cccc([N+](=O)[O-])c2)cc1	-3	-6	1	-0.7	4040	-5	-10
CC(=O)c1cccc(CN2CCN(Cc3ccc(F)cc3)C(CCO)C2)c1 (stereo not drawn)	3	4	7	1.2	2074	7	-21
COc1ccc(Nc2cc(C)nc3ccc(OC)cc23)cc1	-12	15	7	0.2	x	3	-1
Cc1ccc(C)c(NC(=O)c2ccc3nccnc3c2)c1	-1	4	-3	1.7	4324	8	-11
Cn1cc(Cl)c(C(=O)OCC(=O)Nc2cccc(Cl)c2)n1	-12	7	6	2.3	5677	-3	-51
COc1cc(OC)c2c(-c3ccccc3)cc(=O)oc2c1	12	x	x	0.4	5666	-5	-14
COc1ccc(NC(=O)CSc2nnc(C3CC3)n2C)cc1S(=O)(=O)N1CCOCC1	x	x	x	3.0	2807	2	-25
CC(=NNC(=O)c1nnn(-c2nonc2N)c1CN1CCCCC1)c1ccccc1O	x	20	-2	4.5	x	5	x
COc1ccccc1NC(=O)COC(=O)CCc1ccc(S(=O)(=O)N2CCOCC2)cc1	x	-3	-7	-2.3	2864	-3	-13
O=C(CSc1ccccc1C(=O)O)NC1CCCCCCC1	4	x	x	1.5	4204	7	-15
CCC(C)[C@H](NC(=O)N1CCn2c1nc1ccccc12)C(=O)NCc1ccccc1 (stereo partly drawn)	0	2	11	-0.4	5525	-4	-3

Rewritten with two lines to a compound: four of the compounds above
Second line of a record – BJeLR lethal | Mtb hypoxia rep | Mtb hypoxia rep growth | Sa RN4220 lethal | Autofluor counter | ugtP null kill | PrP UTR inh
Cc1ccc(C)c(NC(=O)c2ccc3nccnc3c2)c1
 : -1 | 4 | -3 | 1.7 | 4324 | 8 | -11
Cn1cc(Cl)c(C(=O)OCC(=O)Nc2cccc(Cl)c2)n1
 : -12 | 7 | 6 | 2.3 | 5677 | -3 | -51
NCCc1nnc(SCC(=O)Nc2ccc(Br)cc2)o1
 : -2 | 8 | 11 | 1.7 | 5786 | 4 | -11
O=C(O)c1cccc(-n2cccc2/C=C2\NC(=O)N(Cc3ccc(F)cc3)C2=O)c1
 : 2 | -14 | -11 | -1.2 | 2120 | 2 | -18

Next part:
SMILES	BJeLR lethal	Mtb hypoxia rep	Mtb hypoxia rep growth	Sa RN4220 lethal	Autofluor counter	ugtP null kill	PrP UTR inh
Cc1[nH]c2ccccc2c1/C=N/NC(=O)c1ccc(N)cc1	9	x	x	x	4381	x	-15
C/C=C/c1ccc(OCCCN2C(=O)NC(C)(C)C2=O)c(OC)c1	7	7	1	2.1	15777	2	-6
Cc1noc(C)c1C(=O)OCC(=O)N1CCc2ccccc21	x	5	3	5.0	6412	5	-29
NS(=O)(=O)c1ccc(CNC(=O)c2ccccn2)cc1	-2	1	8	4.7	4511	10	1
COc1ccccc1CC(=O)Nc1ccc(O)cc1C(=O)O	0	18	1	6.2	4119	3	-20
COc1cccc(C=NNC(=O)c2ccccc2)c1OS(=O)(=O)c1ccccc1	x	-7	-1	-0.5	x	2	x
COc1ccccc1NC(=O)Nc1c(C)n(C)n(-c2ccccc2)c1=O	-6	3	10	-1.0	21129*	2	5
COc1ccc(-c2csc(N(CCc3ccc(OC)c(OC)c3)C(=O)COc3ccccc3)n2)cc1	-15	4	9	4.0	19913*	1	-22
OCCC1CN(Cc2cccn2-c2cccnc2)CCN1Cc1ccc(F)cc1 (stereo not drawn)	-7	8	6	0.1	2238	2	-24
CN(C)CCCC1(O)c2ccccc2CCc2ccccc21	-5	9	2	3.3	3839	4	-17
Cc1c(NC(=O)Oc2ccccc2)sc(=S)n1C	3	5	6	2.3	9869	0	-15
CC1(C)CC[C@]2(C)CC[C@]3(C)C4C[C@@H]5OO[C@@]6(O5)C(CCCC6(C)C)[C@]4(C)CC[C@@]3(C)C2C1 (stereo partly drawn)	x	x	x	19	5737	12	-13
CC(C)C(c1nnnn1Cc1ccco1)N1CCC(C(N)=O)CC1 (stereo not drawn)	-1	x	x	2.4	4267	5	-14
CC(Oc1ccc(C(C)(C)C)cc1)c1ccnc2nc(/N=C/N(C)C)nn12 (stereo not drawn)	5	x	x	x	11101	x	-28
CN(C)CCNC(=O)Cn1ccc2cc(S(=O)(=O)N3CCCCC3)ccc21	-11	8	-2	4.0	4359	8	-13
COc1cc2c(cc1OC)C1(Nc3c-2c(Cc2ccccc2)nn3-c2ccccc2)C(=O)Nc2ccccc21 (stereo not drawn)	-8	-6	-3	-21	3403	-11	-7
COc1ccc(C)cc1NC(=O)CO/N=C(\N)CC(=O)Nc1ccccc1OC	x	2	7	8.1	7916	-1	-28
Cc1onc(-c2ccccc2Cl)c1C(=O)NCc1ccc(F)cc1	-4	10	12	4.3	3323	0	-42
COCC1CCCCN1C(=O)c1cccc(OC2CCN(C(=O)C3CC3)CC2)c1 (stereo not drawn)	3	-4	11	-2.3	u	-1	-13
CCOC(=O)c1cc(-c2ccc(F)cc2)n(CCC(=O)NC2CCN(Cc3ccccc3)CC2)c1C	10	-3	1	2.1	2406	11	-12
CCOc1ccc(C2c3[nH]c4ccccc4c3C[C@H]3C(=O)N(C4CCN(Cc5ccccc5)CC4)CC(=O)N23)cc1OC (stereo partly drawn)	-1	-17	-10	1.2	4143	0	-28
CCCCN(CCO)c1ncnc2sc(-c3ccccc3)cc12	-3	7	-11	1.7	3038	-5	-3
O=C(Cn1c(SCC(=O)N2CCCc3ccccc32)nc2ccccc21)N1CCCC1	3	2	5	-0.7	10474	1	-24
O=C(NCc1ccc2c(c1)OCO2)c1cccc(F)c1	-1	x	x	-11	3086	-6	-4
Cc1c(C)c2ccc(OC(C)C(=O)NCCc3c[nH]c4ccccc34)cc2oc1=O (stereo not drawn)	10	x	x	19	5157	3	-32
O=C(c1cc2c(ccc3ccccc32)oc1=O)N1CCCC1	3	x	x	2.0	3077	3	-12
O=C(O)COc1ccccc1C=NNc1ccc(S(=O)(=O)N2CCOCC2)cc1[N+](=O)[O-]	x	22	15	5.6	x	5	x
CCc1c(C)nc(SCC(=O)NNC(=O)Cc2ccc(OC)cc2)[nH]c1=O	-15	-14	5	-1.3	4137	-6	1
CC(CN1CCOCC1)OC(=O)CCc1ccccc1 (stereo not drawn)	-17	4	0	2.2	4797	1	-30
CC(C)CC(=O)Nc1nnc(S(=O)(=O)N(C)c2ccc(Cl)cc2)s1	2	4	-4	4.2	4023	-11	-20
O=C(O)CCc1nc(-c2ccccc2)no1	-3	3	10	6.5	8932	-1	-27
NC1=NC(=O)/C(=C/c2ccc(Br)cc2)S1	-13	1	1	2.7	3723	5	-55
COc1ccc(CN(C(=O)c2oc3ccccc3c2C)C2CCS(=O)(=O)C2)cc1OC (stereo not drawn)	x	x	x	4.5	2061	8	-17
Cc1nc2ccccc2n1Cc1ccccc1	-7	12	2	2.1	4363	7	-2
CCOC(=O)C1C2COc3cc(OC)ccc3C2N2C(=O)N(c3ccc(Cl)cc3)C(=O)[C@]12C (stereo partly drawn)	x	2&-5	0&3	2.5&4.5	x	3&4	x
CNC(=O)c1cc(NC(=O)CCn2nc(-c3ccc(C)cc3)c3ccccc3c2=O)ccc1OC	6	-3	14	-0.6	x	0	x
O=C(c1cc(S(=O)(=O)N2CCCCC2)ccc1F)N1CCCCC1	-10	10	5	7.6	8171	10	0
CN(C)CCN(C(=O)c1ccc2c(c1)OCCO2)c1nc2c(Cl)cccc2s1	-5	-5	-1	0.6	5776	-1	-4
Cc1ccc(N(Cc2ccccc2F)S(C)(=O)=O)c(C)c1	-4	3	2	5.7	4999	3	-56
O=C1CSC(c2cn(-c3ccccc3)nc2-c2cc3ccccc3oc2=O)N1Cc1ccco1 (stereo not drawn)	-15	-1	10	2.9	23471*	1	-22
Cc1cc(C)n2nc(S(=O)(=O)NC3CCCCC3)nc2n1	4	x	x	1.4	6040	4	2
Cc1ccc(/C=c2\s/c(=C(/C#N)C(=O)N3CCCC3)n(Cc3ccco3)c2=O)s1	-2	x	x	x	8628	x	-24
CCc1ccc(/C=C2\SC(=S)N(CCC(=O)Nc3cc(C)on3)C2=O)cc1	6	3	2	6.4	2558	6	-11
O=C(NN/C(=N/S(=O)(=O)c1ccc(Cl)cc1)c1ccccc1)c1ccc(O)cc1	4	15	17	2.9	2238	11	-44
O=C(NC(=S)Nc1ccc(Br)cc1F)C1CCCCC1	x	23	25	-0.9	3010	49	-63
S=C(NCCc1ccccc1)Nc1nccs1	5	5	14	4.4	4114	0	-15
COc1ccc(S(=O)(=O)N(C)C[C@H]2Oc3c(cccc3N(C)C)C(=O)N([C@H](C)CO)C[C@@H]2C)cc1	x	-5	1	2.3	4159	3	18
COc1ccccc1N1CCN(C2CCC(C)CC2)CC1 (stereo not drawn)	-7	10	5	-1.0	3791	0	-44
CCCCc1nnc(NC(=O)CS(=O)(=O)Cc2ccccc2)s1	2	2	4	10	9705	19	-18
Cc1cc(N(C)/N=C/c2ccccc2)nc(-c2ccccc2O)n1	-1	x	x	x	4451	x	-25

Further results
SMILES	BJeLR lethal	Mtb hypoxia rep	Mtb hypoxia rep growth	Sa RN4220 lethal	Autofluor counter	ugtP null kill	PrP UTR inh
COc1ccccc1NC(=O)C1CCCN(c2ncnc3c2nc2n3CCCCC2)C1 (stereo not drawn)	3	7	-4	0.8	5137	4	1
CCN1C(=O)CC(NCc2ccc(S(N)(=O)=O)cc2)C1=O (stereo not drawn)	-15	8	6	3.3	4882	3	-12
Clc1ccccc1Sc1ccc(-c2ccccn2)s1	-3	20	9	-7.6	3832	-28	x
O=C(N/C(=C/c1ccccc1)C(=O)N1CCOCC1)c1ccc([N+](=O)[O-])cc1	0	3	-2	6.9	2466	23	-26
COC(=O)C(C(=O)OC)=C(/C=C/N(C)C)N(C)C	-2	12	1	1.7	9659	-7	-18

Screening results from PubChem BioAssay.
